# Compound activity (PubChem)
# TRPC4 agonist: activators of mouse TRPC4 channel, primary screen, Fluo4 calcium, HEK293 TRPC4beta/mu-opioid cells; Short transient receptor potential channel 4 (Mus musculus), Q9QUQ5; Fluo4 calcium fluorescence; stronger effect = higher value; B-score at 10 µM; actives 0.49% (n = 310,000); AID 2237, 2010;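 active means B-score above 5 SD of library B-scores, and initial fluorescence ratio not above library mean plus 5 SD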;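 further: positive B-score marks a calcium rise read as TRPC4 activation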
#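 Assay system: HEK293 stable line with TRPC4beta plus mu-opioid receptor. Times: dye 45 min RT, read 110 s. Measured by: kinetic Fluo4 calcium fluorescence. Measure: B score of integrated ratio. Controls: assay buffer as low control, maximal DAMGO as high control.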
# hERG rescue: hERG rescue from dofetilide block, primary screen, cell-based, CHO-hERG, FluxOR thallium flux, dofetilide IC70; actives 0.51% (n = 310,000); activation (rescue from dofetilide block), less the hit threshold, % at 10 µM; Voltage-gated inwardly rectifying potassium channel KCNH2 (Homo sapiens), Q12809; dofetilide IC70 present;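 active means activation above the mean of controls blocked by dofetilide plus 5 SD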;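 further: thallium influx through hERG after potassium depolarization seen as dye fluorescence rise; in these data hits start at about 4.7%; inactives centre near -7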
# TMEM16A act: TMEM16A chloride channel activators or potentiators, primary screen, cell-based, HTS; Anoctamin-1 (Mus musculus), Q8BHY3; HEK293 TMEM16A/YFP-H148Q/I152L, iodide quench fluorescence; stronger effect = lower value; B-score at 10 µM; actives 0.3% (n = 340,000);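 active means fluorescence-ratio B-score plate-corrected deviation score at least 3 library SD below zero, with starting fluorescence score within 5 deviations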;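 further: channel opened by trigger with iodide after compound preincubation; score built on the fluorescence ratio of max minus min over baseline; more negative score means more quench and so TMEM16A activation or potentiation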
# KCNK9 block: KCNK9 potassium channel inhibitors, primary screen, HEK293 cells, thallium flux; FluxOR thallium flux fluorescence; stronger effect = lower value; B-score at 10 µM; actives 1.2% (n = 310,000);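 active means ratio B-score over 3 SD below the library mean, with starting fluorescence within 5 SD of its mean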;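 further: negative B-score means less thallium flux so channel inhibition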
# KCNQ1 inh: inhibitors of human KCNQ1 channel, primary screen, cell-based, thallium flux, high-throughput. Potassium voltage-gated channel subfamily KQT member 1 (Homo sapiens), P51787. CHO-K1 KCNQ1, FluxOR thallium flux fluorescence; stronger effect = higher value. B-score at 10 µM. actives 1.3% (n = 310,000). AID 2642, 2010;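 active means compounds whose thallium flux B-score, printed positive for inhibition, exceeds three library SD while starting fluorescence stays within three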;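 further: channel opened by potassium depolarization with thallium stimulus after 20 min compound exposure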
# KCNQ1 pot: potentiators or activators of KCNQ1 channel, primary screen, cell-based, thallium flux, high-throughput | Potassium voltage-gated channel subfamily KQT member 1 (Homo sapiens), P51787 | CHO-K1 KCNQ1, thallium flux FluxOR fluorescence; stronger effect = higher value | B-score at 10 µM | actives 0.35% (n = 310,000);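 active means fluorescence ratio B-score, a plate-corrected score, at least three library SD, with initial intensity B-score within 5 SD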
#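 Assay system: CHO-K1 cells stably expressing KCNQ1; Medium: assay buffer with matched DMSO; Also added: K+/Tl+ depolarizing stimulus; Dosing: single dose; Timing: dye 90 min, compound 20 min, room temperature; Measured by: kinetic FluxOR thallium fluorescence, 10-s 1-Hz baseline, 110-s post-stimulus read; Read-out: peak-minus-minimum fluorescence over initial fluorescence, negative-control normalized, B-scored.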
# TRPC4 potent: positive allosteric modulators of TRPC4, primary screen, cell-based, mouse TRPC4beta, HEK293 mu-opioid, Fluo-4 calcium; Short transient receptor potential channel 4 (Mus musculus), Q9QUQ5; DAMGO EC20, Fluo-4 Ca2+ flux; stronger effect = higher value; B-score at 10 µM; actives 0.42% (n = 310,000); AID 2227, 2009;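 active means B-score of calcium response area above 5 SD of library B-scores, with initial fluorescence ratio within 5 SD of library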;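 further: B-score of integrated fluorescence ratio over time as area under calcium response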
# HDAC3 inhib: HDAC3 deacetylase inhibitors, primary screen, biochemical, fluorescence, cell-free homogeneous; Histone deacetylase 3 (Homo sapiens), O15379; AID 2718, 2010; actives 0.15% (n = 320,000); inhibition, % at 8.3 µM; recombinant HDAC3, fluorogenic peptide/trypsin coupled; in the data active means inhibition above about 26%, passing the limit was not always enough; inconclusive means no clear call, values can overlap the other calls
# Target sequence (O15379 whole entry, looked up): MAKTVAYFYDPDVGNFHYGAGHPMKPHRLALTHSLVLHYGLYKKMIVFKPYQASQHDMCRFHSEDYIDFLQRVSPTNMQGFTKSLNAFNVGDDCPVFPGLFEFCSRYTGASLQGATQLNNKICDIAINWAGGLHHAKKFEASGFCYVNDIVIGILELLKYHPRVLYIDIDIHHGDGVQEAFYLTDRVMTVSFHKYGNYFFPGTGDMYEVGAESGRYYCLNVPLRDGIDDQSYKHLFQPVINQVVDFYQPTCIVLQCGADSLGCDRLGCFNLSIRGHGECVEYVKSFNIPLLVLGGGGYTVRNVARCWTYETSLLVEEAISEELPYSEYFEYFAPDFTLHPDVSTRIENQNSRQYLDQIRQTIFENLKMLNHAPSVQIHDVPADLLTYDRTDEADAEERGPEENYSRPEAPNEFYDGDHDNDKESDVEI
# KCNK3 block: human KCNK3 channel inhibitors, primary screen, CHO cells, FluxOR thallium flux, B-score; actives 0.84% (n = 340,000); B-score at 10 µM; FluxOR fluorescence; stronger effect = lower value; Potassium channel subfamily K member 3 (Homo sapiens), O14649;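 active means B-score under library mean minus 4 SD, starting fluorescence ratio at most library mean plus 5 SD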;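 further: more negative B-score means stronger inhibition of thallium flux through KCNK3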
# Target sequence (O14649 whole entry, looked up): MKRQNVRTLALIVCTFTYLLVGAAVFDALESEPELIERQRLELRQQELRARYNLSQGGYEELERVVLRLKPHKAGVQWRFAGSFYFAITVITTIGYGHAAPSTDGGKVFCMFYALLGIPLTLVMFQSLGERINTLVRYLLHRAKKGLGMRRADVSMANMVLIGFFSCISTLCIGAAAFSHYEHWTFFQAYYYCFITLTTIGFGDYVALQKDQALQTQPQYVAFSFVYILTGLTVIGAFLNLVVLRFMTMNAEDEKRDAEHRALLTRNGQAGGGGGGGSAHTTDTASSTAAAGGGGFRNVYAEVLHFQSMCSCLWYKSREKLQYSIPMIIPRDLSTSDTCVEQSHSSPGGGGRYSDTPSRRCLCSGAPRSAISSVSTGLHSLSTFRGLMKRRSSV
# ANO1 block: TMEM16A chloride channel inhibitors, primary screen, cell-based, HTS; normalized B-score (activity score, 25-100; higher = stronger inhibition) at 10 µM; HEK293 TMEM16A/YFP iodide influx fluorescence, ionomycin; Anoctamin-1 (Mus musculus), Q8BHY3; actives 1.2% (n = 310,000); AID 588511, 2011;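 active means ratio plate-corrected score three or more library SD toward inhibition, starting fluorescence score within five deviations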;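 further: score derived from kinetic fluorescence span divided by baseline fluorescence per well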
# An asterisk follows results filed as active; i = inactive; u = inconclusive; x = no result given. The list is partial, so the mix of outcomes need not match the whole.
SMILES,TRPC4 agonist,hERG rescue,TMEM16A act,KCNK9 block,KCNQ1 inh,KCNQ1 pot,TRPC4 potent,HDAC3 inhib,KCNK3 block,ANO1 block
COc1ccc(-c2nc(N)ncc2-c2csc(C)n2)c(O)c1,i,-8,i,i,i,i,i,5,i,i
COc1ccc2nc(NC(=O)C3CCCN3S(=O)(=O)c3ccc(C)cc3)sc2c1 (stereo unspecified),i,-8,i,i,i,i,i,8,i,i
c1ccc(Nc2nc3ccccc3n3cnnc23)cc1,i,2,i,i,i,i,i,8,i,i
CC(NC(=O)Cc1cccs1)c1ccccc1 (stereo unspecified),i,-6,i,i,i,i,i,-1,i,i
Cc1ccc2nc(NCc3ccc(F)cc3)c3nncn3c2c1,i,-7,i,i,i,i,i,-2,i,i
COc1ccccc1NC(=O)C(C)OC(=O)/C(=C/c1ccccc1)NC(C)=O (stereo unspecified),i,-16,i,i,i,i,i,-2,i,i
c1ccc(-c2cnc(-c3cccnc3)o2)cc1,x,x,i,x,x,x,x,-12,i,i
N#Cc1c2n(c(=S)n(-c3ccccn3)c1=O)CCCCC2,i,-13,i,i,i,i,i,6,i,i
Cc1ccc2c(n1)sc1c(N)ncnc12,i,-9,i,i,i,i,i,-11,i,i
O=C(CSc1nnc2c3c4c(sc3ncn12)CCCC4)NCc1ccco1,i,0,i,i,i,i,i,5,i,i
CC(C)(C)C1=Nn2c(nnc2-c2ccco2)SC1,i,-10,i,i,i,i,i,1,i,i
O=C(/C=C/c1ccccc1Cl)NCc1cccs1,i,-3,i,i,i,i,i,1,i,i
CS(=O)(=O)c1ccc2nc(NC(=O)C3COc4ccccc4O3)sc2c1 (stereo unspecified),i,-13,i,i,i,i,i,2,i,i
O=C1OCCC/C1=C\c1ccc2c(c1)OCO2,i,-5,i,i,i,i,i,2,i,i
Cc1ccc(-c2cnc(NC(=O)CCC(=O)N(C)Cc3ccccc3)n2C)cc1,i,-7,i,i,i,i,i,1,i,i
Cc1cc(NC(=O)CSc2ccc3nnc(-c4cccnc4)n3n2)no1,i,-4,i,i,i,i,i,-4,i,i
COCCn1c(=NC(=O)CSCC(=O)N2CCOCC2)sc2ccccc21,i,-9,i,i,i,i,i,1,i,i
CCn1c(COc2ccc(C)cc2)nnc1SCC(=O)Nc1ccc(S(N)(=O)=O)cc1,i,-12,i,i,i,i,i,-4,i,i
O=C1NC(=S)N/C1=C/c1ccc2c(c1)OCO2,i,-7,i,i,i,i,i,1,i,i
O=C(NC1CCCC1)C1CC(c2ccc(F)cc2)=NO1 (stereo unspecified),i,-9,i,i,i,i,i,0,i,i
O=C1OC(c2ccc(Cl)cc2)=N/C1=C\C=C\c1ccco1,i,-12,i,i,i,i,i,u,i,i
Cc1ccc(C(=O)N(C)c2nnc(-c3ccncc3)s2)cc1,i,-10,i,i,i,i,i,-1,i,i
Cc1ccc(N2C(N)=NC(N)=NC23CCCC3)c(C)c1,i,-5,i,i,i,i,i,3,i,i
O=C(NC1CCCCC1)C1CCN(C(=O)c2ccccc2Cl)CC1,i,-2,i,i,i,i,i,-11,i,i
Cc1nn(-c2ccccc2)c2[nH]c(=O)c(CNCC3CCCO3)cc12 (stereo unspecified),i,-9,i,i,i,i,i,3,i,i

# 3 of these compounds in another layout.
SMILES | TRPC4 agonist | hERG rescue | TMEM16A act | KCNK9 block | KCNQ1 inh | KCNQ1 pot | TRPC4 potent | HDAC3 inhib | KCNK3 block | ANO1 block
Cc1ccc(-c2cnc(NC(=O)CCC(=O)N(C)Cc3ccccc3)n2C)cc1 | i | -7 | i | i | i | i | i | 1 | i | i
Cc1cc(NC(=O)CSc2ccc3nnc(-c4cccnc4)n3n2)no1 | i | -4 | i | i | i | i | i | -4 | i | i
COCCn1c(=NC(=O)CSCC(=O)N2CCOCC2)sc2ccccc21 | i | -9 | i | i | i | i | i | 1 | i | i

# (list continues)
SMILES,TRPC4 agonist,hERG rescue,TMEM16A act,KCNK9 block,KCNQ1 inh,KCNQ1 pot,TRPC4 potent,HDAC3 inhib,KCNK3 block,ANO1 block
COc1ccc2cc(C(=O)O)ccc2c1,i,-14,i,i,i,i,i,-6,i,i
COc1cccc(NC(=O)COC(=O)c2c3c(nc4ccccc24)CCC(C)C3)c1 (stereo unspecified),i,-22,i,i,i,i,i,u,-10*,i
Cc1ccc(C)c(-c2cc(C(=O)Nc3nccs3)c3ccccc3n2)c1,i,-8,i,-7.8*,8*,i,i,-7,i,i
CCOC(=O)[C@H](O)[C@@H](O)c1cccc([C@H](O)[C@@H](O)C(=O)OCC)c1,i,-3,i,i,i,i,i,-4,i,i
O=C(NCc1ccccn1)C1CCN(S(=O)(=O)c2cnc[nH]2)CC1,i,-11,i,i,i,i,i,-6,i,i
CC(=O)N1CCN(c2ccnc3cc(Cl)ccc23)CC1,i,-3,i,i,i,i,i,-5,i,i
CC(C)=CC(O)C/C(C)=C/COc1ccc2ccc(=O)oc2c1 (stereo unspecified),i,-8,i,i,i,i,i,-46,i,i
c1cncc(-c2nc(NCC3CCCO3)c3ccccc3n2)c1 (stereo unspecified),i,-6,i,i,i,i,i,4,i,i
CC(C)c1c(O)nc(SCCC(=O)O)[nH]c1=O,i,-3,i,i,i,i,i,1,i,i
O=C(OCC(=O)c1ccco1)c1ccc2ncsc2c1,i,-12,i,i,i,i,i,2,i,i
COc1ccc(C(=O)O/N=C(/C)c2cccs2)cc1,i,-12,i,i,i,i,i,13,i,i
CC(C)(C)C1=C(C#N)C(c2ccc3c(c2)OCO3)C(C#N)=C(N)O1 (stereo unspecified),i,-12,i,i,i,i,i,5,i,i
O=C(O)/C=C/c1ccc2c(-c3ccccc3)onc2c1,i,-3,i,i,i,i,i,5,i,i
CCOc1cc(-c2nc3ccccn3c2NCC2CCCO2)ccc1O (stereo unspecified),i,-19,i,i,i,i,i,-9,i,i
COc1cc(NC(=O)c2ccc(Br)o2)ccc1NC(=O)C(C)C,i,-10,i,i,i,i,i,5,i,i
COc1ccc2cc(OCC(=O)NNC(=O)Nc3ccc(F)cc3)ccc2c1,i,-6,i,i,i,i,i,-3,i,i
CC(Nc1[nH]c(=O)n(C)c(=O)c1N=O)c1ccccc1 (stereo unspecified),i,-3,i,i,i,i,i,0,i,i
O=C1Nc2c(c(=O)[nH]c(=O)n2-c2ccccc2)C(C(F)(F)F)(C(F)(F)F)N1,i,-9,i,i,i,i,i,8,i,i
COc1ccc2cc(-c3[nH]ncc3CN3CCCC3c3nonc3C)ccc2c1 (stereo unspecified),i,-7,i,i,i,i,i,0,i,i
Cc1nc(-c2ccccc2)cn2c1nc1ccccc12,i,-5,i,i,i,i,i,-82,i,i
C/C=C/c1ccc(Oc2nnnn2-c2ccc(C(N)=O)cc2)c(OC)c1,i,-12,i,i,i,i,i,0,i,i
COc1ccc(/C=C2\CCOC2=O)cc1,i,-12,i,i,i,i,i,7,i,i
CC(=O)c1ccc(NC(=O)C2CC(c3ccc(F)cc3)=NO2)cc1 (stereo unspecified),i,-5,i,i,i,i,i,5,i,i
Nc1ccc(C(=O)OC2CCOC2=O)cc1[N+](=O)[O-] (stereo unspecified),i,-4,i,i,i,i,i,-7,i,i
Nc1ccc(-c2cnc(N)c(C(=O)c3cccnc3)n2)cn1,x,x,i,x,x,x,x,x,i,x

# Compound profiles, as listed above.
# CC(Nc1[nH]c(=O)n(C)c(=O)c1N=O)c1ccccc1 (stereo unspecified) reads TRPC4 agonist: i; hERG rescue: -3; TMEM16A act: i; KCNK9 block: i; KCNQ1 inh: i; KCNQ1 pot: i; TRPC4 potent: i; HDAC3 inhib: 0; KCNK3 block: i; ANO1 block: i
# CC(C)(C)C1=C(C#N)C(c2ccc3c(c2)OCO3)C(C#N)=C(N)O1 (stereo unspecified) reads TRPC4 agonist: i; hERG rescue: -12; TMEM16A act: i; KCNK9 block: i; KCNQ1 inh: i; KCNQ1 pot: i; TRPC4 potent: i; HDAC3 inhib: 5; KCNK3 block: i; ANO1 block: i
# O=C(OCC(=O)c1ccco1)c1ccc2ncsc2c1 reads TRPC4 agonist: i; hERG rescue: -12; TMEM16A act: i; KCNK9 block: i; KCNQ1 inh: i; KCNQ1 pot: i; TRPC4 potent: i; HDAC3 inhib: 2; KCNK3 block: i; ANO1 block: i

# Further entries follow.
SMILES,TRPC4 agonist,hERG rescue,TMEM16A act,KCNK9 block,KCNQ1 inh,KCNQ1 pot,TRPC4 potent,HDAC3 inhib,KCNK3 block,ANO1 block
Cc1c(/C=N/NC(=O)c2ccc(O)cc2)c2ccccn2c1C(=O)c1ccc(F)cc1,i,-7,i,i,i,i,i,7,i,i
CCOC(=O)C(CCSC)NC(=O)CN (stereo unspecified),i,-15,i,i,i,i,i,3,i,i
CCSc1nc(-c2cccnc2)ccc1C#N,i,-9,i,i,i,i,i,x,i,i
COc1ccc2nc(NC(=O)C3CCCN(S(=O)(=O)c4cccc5nsnc45)C3)sc2c1 (stereo unspecified),i,-5,i,i,i,i,i,-6,i,i
COc1ccc2c3n(nc2c1)CCN=C3c1cc(Cl)c(N)c(Cl)c1,x,x,i,x,x,x,x,1,i,i
COc1cccc(C(=O)NC(=S)Nc2ccc(Cl)c(C(=O)O)c2)c1,i,-4,i,i,i,i,i,0,i,i
CCOC(=O)C1CCCN(C(=S)NC(=O)/C=C/c2ccc(F)cc2)C1 (stereo unspecified),i,-3,i,i,i,i,i,2,i,i
COc1ccccc1OCCCOc1cccc(/C=C2\SC(=O)NC2=O)c1,i,-1,i,i,i,i,i,-6,i,i
CCCCc1nc(NCCO)c(C#N)c2c1CCCC2,i,-20,i,i,i,i,i,1,i,i
COc1cc(/C=C2\NC(=S)N(C)C2=O)ccc1O,i,-6,i,i,i,i,i,1,i,i
Cc1noc(C)c1S(=O)(=O)N(CCc1ccccc1)Cc1ccccc1,i,-13,i,i,i,i,i,4,i,i
